Compound activity (PubChem BioAssay)
CSC inhib: cancer stem cell inhibition; inhibition, % at 7.5 µM; hit rate 1.1% among 300,000; cancer stem cell-like cells viability, luminescence; AID 2717;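 active = mean at 75% or more and at least half the replicates too; inconclusive = mean and replicates disagree; tested in HMLE shEcad cells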;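 also: 0% = median of negative and 100% = median of positive control wells; the first replicate is given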
Yeast UUG start: modulators of start codon recognition fidelity in yeast; activity score, % at 18.7 µM; S. cerevisiae UUG-firefly luciferase reporter, luminescence/redox ratio; hit rate 0.13% among 350,000;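 active = replicate mean at a twofold rise or more, about +100% in these data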;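 also: firefly luciferase made from a UUG start codon reports start codon fidelity; reporter light over untreated wells divided by growth signal over untreated wells; some hits fall short of that in this replicate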
PABP FP inh: blocks human PABP binding to poly(A) RNA; inhibition, % at 35 µM; hit rate 1% among 290,000; fluorescence polarization; P11940;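 active = 50% or more with normal probe brightness, or confirmed in later tests; inconclusive = above 50% with abnormal brightness, or retests that disagree; inactive = below 50% or failed in later tests; about a fifth of its hits are not listed in these tables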;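 also: calls also rest on retests at 20 µM and on dose response follow-up; controls were probe without protein and protein plus probe with vehicle; some compounds called inactive have numbers as strong as hits; many hits fall short of the cut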
MT1-MMP act inh: MT1-MMP (human) activation inhibition | P50281 | HT1080 RFP-PRO-GFP cells, GFP/RFP ratio fluorescence, overnight; percent of plate control window, DMSO zero | GFP/RFP ratio change, % at 20 µM | hit rate 0.061% among 360,000 | AID 651647;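 active = GFP/RFP ratio change of at least 30% with cell ATP level not reduced by more than half and red fluorescence within 50% of control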; also: strong numbers were not always called active
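Assay system: HT1080 RFP-PRO-GFP cells. Benchmarks: DMSO vehicle wells and RFP-L50D-GFP reporter cell wells. Times: overnight cell settling, then overnight compound exposure, 37 °C, 5% CO2. Compound: 20 µM single dose, 1% DMSO. Read-out basis: GFP/RFP fluorescence ratio.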
HIV Env fusion: HIV envelope-mediated fusion inhibition; hit rate 1.1% among 360,000; HeLa-JRFL Env/CEM21 cell fusion, luciferase; inhibition, % at 12.3 µM; AID 651610;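 active = mean replicate inhibition score of at least 50 and every replicate individually at or above 50; inconclusive = only one of the two criteria met; inactive = mean below 50 and not all replicates reaching 50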;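 also: 0% = plate neutral controls and 100% = maraviroc near 300 nM; one replicate is shown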
eIF4H FP inh: inhibitors of RNA binding by human eIF4H; inhibition, % at 35 µM; AID 2012; eIF4H fluorescence polarization binding assay; hit rate 0.94% among 290,000;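 active = 50% or more with normal probe brightness, or confirmed in later tests; inconclusive = above 50% with abnormal brightness, or retests that disagree; inactive = below 50% or failed in later tests; about a fifth of its hits are not listed in these tables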;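 also: calls also rest on retests at 20 µM and on dose response follow-up; 0% = protein and probe with vehicle and 100% = probe without protein; strong numbers were not always called active; many hits fall short of the cut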
Rce1 inh: blocks yeast Ras-converting enzyme. yeast membranes, quenched prenylated peptide cleavage fluorescence. calls only. hit rate 0.27% among 290,000. AID 2563;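 active = fall in fluorescence gain of 50% or more versus controls, with final raw signal at or below 3038400; inconclusive = same 50% fall but final raw signal above 3038400; inactive = fall in fluorescence gain under 50%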;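 also: plate controls were neutral control wells for no effect and wells lacking membranes for full effect; tested at 10 µM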
Target sequence (Q03530 whole entry, looked up): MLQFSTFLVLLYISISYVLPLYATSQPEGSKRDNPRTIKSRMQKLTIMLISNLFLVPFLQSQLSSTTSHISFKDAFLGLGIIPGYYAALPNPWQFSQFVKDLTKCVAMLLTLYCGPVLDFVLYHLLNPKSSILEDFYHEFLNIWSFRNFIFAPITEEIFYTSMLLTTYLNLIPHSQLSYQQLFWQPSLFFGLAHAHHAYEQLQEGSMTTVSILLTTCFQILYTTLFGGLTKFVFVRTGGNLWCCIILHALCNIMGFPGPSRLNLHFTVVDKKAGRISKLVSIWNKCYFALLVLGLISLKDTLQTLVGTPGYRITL
eIF4H FP inh retest: second read-out of eIF4H FP inh, no call of its own (marks repeat the call); inhibition, %; compound at 20 µM; confirmation average;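 mean of two retest wells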
PABP FP inh retest: also measured in PABP FP inh; calls as there; inhibition, %; compound at 20 µM; confirmation repeats;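 mean of two retest wells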
MT1-MMP act inh RFP: also measured in MT1-MMP act inh; calls as there; RFP signal change, %; measured here: RFP expression control read;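 0 = vehicle wells; hits needed this value within 50% of zero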
Starred values were filed as active, the others as inactive; i = inactive; u = inconclusive; x = not tested or not shown. Some of the compounds tested; count on the stated rates, not on these rows.

SMILES | CSC inhib | Yeast UUG start | PABP FP inh | MT1-MMP act inh | MT1-MMP act inh RFP | HIV Env fusion | eIF4H FP inh | Rce1 inh | others
CC1C/C(=N\NC(=O)c2ccc([N+](=O)[O-])cc2)CC(C)(C)C1 (centres undefined) | -8 | -20 | -1 | 2 | 8 | -7 | -8 | i
COC(=O)c1cc(NC(=O)CN2C(=O)CSC2=O)ccc1Cl | -5 | 1 | -11 | 0 | 3 | 5 | 0 | i
COc1ccccc1N1CCN(C(=O)CSc2ccc3c(C)cc(C)nc3n2)CC1 | x | -16 | -3 | -6 | -2 | x | u | i
CN1CCN(C(=O)C2=C[C@H](c3ccc(C(F)(F)F)cc3)C[C@H](OCCCCO)O2)CC1 | 1 | -14 | x | -1 | 2 | -19 | x | i
CSc1nnc2c(n1)c(C)nn2-c1ccc(C)cc1 | 6 | -23 | -5 | -1 | -1 | -51 | 12 | i
COc1ccc(C(=O)Nn2c(C)nc3ccccc3c2=O)cc1OC | -19 | x | 0 | 1 | 3 | -13 | -3 | i
CCOC(=O)c1cc(-c2nnc(SCC(=O)Nc3ccc(F)cc3)o2)c(C)nc1C | -3 | x | 11 | -1 | -1 | x | 9 | i
Cn1c(=O)c(C(N)=S)cn(-c2ccccc2)c1=O | 1 | -5 | -5 | 5 | 2 | -1 | -3 | i
CC(=O)OC[C@@H]1CN(Cc2ccccc2)C[C@H](n2cnc3c(NC4CCCC4)ncnc32)O1 | x | -6 | x | 4 | 0 | -2 | x | x
O=C(COc1ccc(S(=O)(=O)N2CCOCC2)cc1)NC1CCCCC1 | x | -25 | x | 0 | 5 | 3 | x | x
CC12CC3CC(C)(C1)CC(NCc1ccncc1)(C3)C2 | -11 | -22 | -2 | -7 | 0 | -5 | -5 | i
CCOc1ccc(NC(=O)COc2cccc3c2CCN(Cc2cccnc2)C3=O)cc1 | -3 | -6 | 2 | -7 | 0 | -1 | -4 | i
Cc1cccnc1NC(=S)Nc1ncccc1C | -1 | -3 | -1 | x | x | -70 | 1 | i
COc1ccc(CCNC2CCN(C)CC2)cc1OC | -16 | -18 | 7 | 1 | 2 | x | -2 | i
Clc1cc(Br)ccc1OCCN1CCOCC1 | -14 | -7 | -8 | 3 | 2 | 2 | -9 | i
CCOc1ccc(S(=O)(=O)Nc2ccc(S(=O)(=O)N3CCOCC3)cc2)cc1 | 1 | 0 | -6 | 3 | 1 | x | -7 | x
COc1ccc([C@H]2CC(=O)C=C(c3ccc(C(=O)O)cc3)C2)cc1OC | -4 | -15 | x | 1 | 2 | 4 | x | x
O=C(COc1ccccc1)Nc1ccccc1N1CCN(c2ccccc2)CC1 | 1 | -5 | 0 | -7 | -4 | x | -3 | i
Cc1ccc(Cl)cc1NC(=O)C(NS(=O)(=O)c1cccs1)c1ccccc1 (centres undefined) | 7 | -5 | 1 | -1 | -3 | 50 | 11 | i
Cc1cccc(C(=O)NC(=S)Nc2c(C)n(C)n(-c3ccccc3)c2=O)c1 | -11 | -20 | x | 13 | -4 | 3 | x | i
O=C(Nc1ccon1)c1cccc(C(F)(F)F)c1 | -6 | -3 | 5 | 2 | 2 | -11 | -2 | i
O=C(CSc1ncnc2sc3c(c12)CCCC3)NC1CCS(=O)(=O)C1 (centres undefined) | -17 | -13 | x | 2 | -1 | 5 | x | x
COc1ccc(-c2cc(N)n(S(=O)(=O)c3c(F)c(F)c(F)c(F)c3F)n2)cc1OC | 42 | 10 | 13 | 4 | -4 | x | -4 | i
Cc1nn(C)c(C)c1CN(C)C(=O)c1cc2nc(-c3ccco3)cc(C(F)(F)F)n2n1 | 11 | -9 | 14 | 3 | -1 | x | 3 | i
COc1ccc(CNC(=O)C(CCSC)NS(=O)(=O)c2ccccc2F)cc1 (centres undefined) | x | -17 | -3 | -3 | 2 | 0 | -10 | i
Cc1cc(Cl)c(S(=O)(=O)Nc2ccc3c(c2)OCCO3)cc1OCC(N)=O | 7 | -43 | 6 | 6 | 1 | x | 3 | i
COc1ccc(/C=C/c2c(-c3ccccc3OC)sc3ccccc23)cc1OC | 6 | -15 | x | -2 | 0 | -21 | x | x
CN(CC(=O)NCc1ccco1)C(=O)C1CC(=O)N(c2ccc3c(c2)OCCO3)C1 (centres undefined) | -21 | -10 | x | -1 | 3 | x | x | x
COc1ccc(-c2ccc(SCC(=O)N3CC(=O)Nc4ccccc43)nn2)cc1 | -10 | 5 | 6 | 6 | 2 | -34 | -2 | i
O=C(NNC1CC(=O)N(c2ccc(Br)cc2)C1=O)c1cccnc1 (centres undefined) | -33 | x | 22 | 1 | 0 | -4 | 18 | i
O=C(Nc1cc(F)cc(F)c1)c1ccc(NCCCN2CCCCCC2)c([N+](=O)[O-])c1 | 44 | x | -9 | -9 | -5 | 1 | -12 | i
COc1ccccc1/C=C/C=N/n1c(-c2ccc(Cl)cc2)n[nH]c1=S | 56 | -19 | 12 | 3 | -2 | -7 | 17 | i
NNC(=O)CC12CC3CC(C1)CC(n1ncnn1)(C3)C2 | -24 | x | 21 | 2 | 2 | 17 | 4 | i
COc1ccc2c(c1)C(=O)[C@H](O)[C@@H](c1ccc(OC)c(Br)c1)O2 | 108* | x | -11 | x | x | -1 | 53 | i | eIF4H FP inh retest=35;PABP FP inh retest=2
Cc1ccc(NS(=O)(=O)c2ccc(CCC(=O)N3CCCC3)cc2)cc1 | 15 | x | 0 | -7 | -5 | 25 | 6 | i
COc1ccccc1CNC(=O)/C=C/c1ccc(Br)o1 | x | 8 | 8 | -4 | 3 | 5 | 81 | i | eIF4H FP inh retest=-3;PABP FP inh retest=7
CCOC(=O)N=Nc1c(O)n(Cc2ccccc2)c2ccccc12 | 6 | x | -12 | 8 | -2 | 6 | -8 | i
O=C(CN1C2CCCC1CC(NC(=O)c1ccco1)C2)Nc1ccccc1C(F)(F)F (centres undefined) | -16 | 0 | 5 | 5 | -7 | 37 | -5 | i
CN(C)CCNC(=O)CCn1nc(-c2ccc(Cl)cc2)ccc1=O | x | -10 | 7 | 2 | -2 | 0 | 1 | i
CCOC(=O)c1c(C)[nH]c(C)c1S(=O)(=O)NCCN1CCN(c2ccccc2F)CC1 | -8 | 7 | 5 | 0 | -2 | 3 | 3 | i
COc1ccc(-c2oc3ncn(CCN4CCOCC4)c(=N)c3c2-c2ccc(OC)cc2)cc1 | 43 | -2 | -12 | -7 | -15 | 42 | -13 | i
Cc1ccccc1C1NC(c2ccccc2C)C([N+](=O)[O-])C(C)(C)C1[N+](=O)[O-] (centres undefined) | 10 | -11 | -1 | 0 | -6 | 22 | -6 | i
CCN(CC)CCNC(=O)c1ccc(NC(=O)c2ccc(S(=O)(=O)N3CCCCCC3)cc2)cc1 | x | -14 | x | 4 | -2 | -8 | x | i
CN(C(=O)c1sc2nc(N3CCOCC3)c3c(c2c1N)CCCC3)c1ccccc1 | -7 | x | -26 | -5 | -7 | -48 | -12 | i
C=CCOC(=O)c1[nH]c2c(c1C)C(=O)CC(c1ccco1)C2 (centres undefined) | 7 | x | 1 | x | x | x | u | i | PABP FP inh retest=49
Cc1cccc(-c2nc(CS(=O)CC(=O)NC3CCCCC3)c(C)o2)c1 (centres undefined) | -11 | -19 | 1 | 1 | -2 | 0 | -6 | i
COc1ccc(S(=O)(=O)N2CCOCC2)cc1NC(=O)CCCOc1ccc(C(C)=O)cc1 | x | -5 | x | -2 | 2 | 18 | x | x
O=C(Nc1cccc(C(=O)O)c1)/C(=C/c1ccc2c(c1)OCO2)NC(=O)c1cccc(Br)c1 | -1 | x | 5 | -1 | 4 | -4 | -6 | i
Cc1csc(SCC(=O)Nc2cccc(S(=O)(=O)N3CCOCC3)c2)n1 | -8 | x | -11 | 3 | 4 | -6 | 8 | i
O=S(=O)(c1ccc(F)cc1)n1ccc2cccnc21 | -6 | -7 | 0 | -3 | 2 | -92 | 3 | i
Cc1[nH]c(C)c(S(=O)(=O)N2CCN(c3ccccc3F)CC2)c1C(=O)N1CCCC1 | 0 | -15 | 9 | -1 | -1 | -10 | 36 | i
Cc1nc(-c2ccc(F)cc2)c(CC(=O)N(C)CC(=O)Nc2ccccc2Cl)s1 | -26 | -18 | x | 4 | -4 | -9 | x | i
CCCC(=O)Nc1ccc(S(=O)(=O)N2CCCC2)cc1 | -16 | -14 | -2 | x | x | x | 12 | i
Cc1csc(SC(C)C(=O)NCC2CCCO2)n1 (centres undefined) | -11 | -7 | x | -15 | -5 | -8 | x | i
CCOC(=O)c1ccc2c(c1)nc(COc1ccc3ccccc3c1)n2CC | -9 | -18 | -8 | 1 | -7 | 25 | -4 | i
COc1ccccc1NC(=S)N1CCOCC1 | -2 | x | -1 | 5 | 6 | 4 | -18 | i
Nc1c(C(=O)Nc2ccc(Br)cc2)sc2nc(N3CCOCC3)c3c(c12)CCCC3 | x | -16 | x | 5 | 2 | 47 | x | x
COc1cc(C)c(Cl)cc1S(=O)(=O)NCCCN1CCOCC1 | -1 | -6 | 1 | x | x | 3 | 2 | i
CCOP(=O)(OCC)c1nc(-c2cccc3ccccc23)oc1NCc1ccc(OC)cc1 | 11 | x | 2 | -10 | -7 | 21 | -8 | i
COc1cccc(COC(=O)C2CC(=O)N(Cc3ccco3)C2)c1OC (centres undefined) | 3 | -11 | 9 | 5 | 7 | -5 | -11 | i
More results
SMILES | CSC inhib | Yeast UUG start | PABP FP inh | MT1-MMP act inh | MT1-MMP act inh RFP | HIV Env fusion | eIF4H FP inh | Rce1 inh | others
COc1cccc(CNC(=O)CSc2nc3ccc(C)cc3[nH]2)c1 | -1 | -12 | -1 | 1 | -2 | -6 | 0 | i
CCOc1ccccc1N(C)S(=O)(=O)c1ccc2c(c1)CC(C)N2C(=O)C1CC1 (centres undefined) | 32 | -1 | x | -1 | -3 | 4 | x | i
CC(=O)NCCc1ccc(S(=O)(=O)Nc2cccnc2)cc1 | 0 | -20 | -4 | 2 | 5 | x | -1 | i
CC(C)Oc1cccc(C(=O)C2CCCN(Cc3cccn3-c3ccccn3)C2)c1 (centres undefined) | 4 | x | -2 | -2 | -8 | 3 | -3 | i
CCOC(=O)C(C)n1cnc2c1c(=O)[nH]c(=O)n2C (centres undefined) | 0 | -8 | 0 | 2 | 3 | x | 0 | i
O=C(CCCn1c(=O)oc2ccccc21)N1CCN(c2ccc(F)cc2)CC1 | -11 | -6 | -6 | -11 | 3 | 13 | 2 | i
O=S(=O)(c1cccc2nsnc12)N1CCN(Cc2ccccc2)CC1 | -57 | -7 | 5 | -1 | -1 | -13 | -11 | i
COc1ccc(COC(=O)CCCN=C2NS(=O)(=O)c3ccccc32)cc1F | x | 0 | x | 1 | -6 | 9 | x | x
C=CCc1cccc2cc(C(=O)Nc3ccc(S(=O)(=O)Nc4nnc(CC)s4)cc3)c(=O)oc12 | 5 | x | 8.6* | -4 | 2 | 0 | 67* | i | eIF4H FP inh retest=87*;PABP FP inh retest=90*
Cn1c(=O)[nH]c(=O)c2c1nc(NCCCn1ccnc1)n2Cc1ccc(F)cc1 | -3 | -13 | -7 | 3 | 7 | -100 | -4 | i
N#CCN1CCC2(O)CCCCC2C1c1ccc2c(c1)OCO2 (centres undefined) | -7 | x | 3 | 2 | 7 | 12 | -6 | i
